Bioassay records as filed in PubChem.
HCMV UL50-53 inh: inhibitors of HCMV UL50-UL53 interaction, biochemical, HTRF; normalized percent inhibition; inhibition, % (concentration not given with the values); HCMV UL50-UL53 nuclear egress complex (human cytomegalovirus); actives 0.15% (n = 190,000);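 active = both replicates at 50% or more, plus weaker picks with an unusually low signal ratio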;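 note: stock transfer was 100 nL into about 20 µL; 0% = negative control wells and 100% = wells with untagged competitor protein; inactives centre near -12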
Sa growth inh: S. aureus growth inhibition at 42 and 30 °C, primary screen, LtaS inhibitor project, RN4220, two temperatures. actives 0.53% (n = 170,000). AID 720641, 2013. relative growth, % (no concentration beside the values). OD600, 20 h, 42 °C; active compounds read low;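 active = growth at 42 °C up to 50% and 20 or more points under that at 30 °C, or under 10% at both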;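 note: 300 nL library stock went into each well; scaled to the means of positive and negative controls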
GIV Gai3 FP: inhibitors of GIV peptide binding to Galpha-i3, primary screen, biochemical, fluorescence polarization, FITC-GIV GBA peptide, rat Galphai3; Guanine nucleotide-binding protein G(i) subunit alpha-3 (Rattus norvegicus), P08753; 90 min; active compounds read low; scaled: aluminum fluoride 0%, vehicle 100%; percent of control (FP), % (no concentration beside the values); actives 0.42% (n = 210,000); AID 1224905, 2016;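 active = replicate mean at 85% of control or lower, very high polarization wells dropped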;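 note: wells of about 15 µL received 100 nL stock; the first replicate is given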
Target sequence (P08753 whole entry, looked up): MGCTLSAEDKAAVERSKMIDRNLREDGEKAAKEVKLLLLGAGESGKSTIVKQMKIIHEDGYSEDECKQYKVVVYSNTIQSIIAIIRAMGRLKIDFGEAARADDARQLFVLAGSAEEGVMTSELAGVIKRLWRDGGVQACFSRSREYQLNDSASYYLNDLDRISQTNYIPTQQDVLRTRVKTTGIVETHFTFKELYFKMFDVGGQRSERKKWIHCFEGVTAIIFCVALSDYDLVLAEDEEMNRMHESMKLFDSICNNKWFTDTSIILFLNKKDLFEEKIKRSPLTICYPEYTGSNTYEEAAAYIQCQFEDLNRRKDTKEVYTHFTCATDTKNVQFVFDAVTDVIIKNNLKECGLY
Sa growth inh second temp: further read-out of Sa growth inh, marked with its call; relative growth, %; measured here: growth at 30 °C;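 optical density after 20 h as mean of two plates; 100% = untreated growth and lower means inhibition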
* marks the source's active call; other numbers are inactive results; nt = not tested or not shown; & = joins results of further samples. This is a random part of the collection; any-hit rate near 0.83%.

no. | molecule | GIV Gai3 FP | Sa growth inh | HCMV UL50-53 inh | Sa growth inh second temp
1 | COc1ccc2c(=O)c(NC(=O)Nc3ccc(F)cc3F)c[nH]c2c1 | 106.1 | 108.9 | 2.1 | 84.7
2 | CNCC(=O)NC(C)(C)C | nt | 129.5 | 3.5 | 99.9
3 | O=C(c1ccccc1)c1cnc(Nc2nc3ccccc3o2)nc1-c1ccccc1 | 106.6 | 119.9 | 4.8 | 94.0
4 | c1ccc(-c2cc3ccccc3[nH]2)cc1 | nt | 94.1 | -8.6 | 87.2
5 | CCOC(=O)N1CCC(NC(=O)c2cc3cc4cc(OC)ccc4nc3o2)CC1 | 105.3 | 101.3 | nt | 74.6
6 | O=C(C1CCCCC1)N1CCCCCCC1 | 108.9 | 112.6 | -10.6 | 107.4
7 | CCOC(=O)c1ccc(NC(=O)NC(C)c2ccc3c(c2)OCO3)cc1 (stereo not given) | 103.9 | 94.1 | 1.5 | 95.1
8 | CCN(CC)c1cc(C)c2cc(NC(=O)c3ccc(OC)c(OC)c3)ccc2n1 | 99.9 | 110.4 | -8.4 | 91.5
9 | O=c1cc(-c2ccccc2)n2c(SCc3ccccc3)nnc2[nH]1 | 98.8 | 98.6 | nt | 91.9
10 | CCc1cc2cc(C)cc(C)c2nc1Cl | 99.7 | 79.5 | -12.1 | 99.3
11 | c1ccc(Cn2c3c(c4ccccc42)CCOc2ccccc2-3)cc1 | 98.7 | 93.7 | nt | 91.6
12 | CN(C)S(=O)(=O)c1cccc(C(=O)N=C=S)c1 | nt | 80.7 | -9.5 | 82.1
13 | COc1ccccc1Cn1c(CNS(=O)(=O)c2cccc([N+](=O)[O-])c2)nc2cccnc21 | 107.8 | 85.7 | nt | 77.0
14 | COc1cc(N)ncn1 | 100.8 | 84.5 | 14.8 | 115.5
15 | COc1ccccc1C(O)(c1ccc(O)cc1)C(CN1CCOCC1)c1ccccc1 (stereo not given) | 99.8 | 98.4 | -7.0 | 82.2
16 | CC(C)(C)c1ccc(-c2nc3ccccc3c(=O)o2)cc1 | 103.9 | 75.7 | -1.3 | 30.9
17 | CCc1cccc(C)c1NC(=O)CSc1nc2ccccc2nc1N1CCOCC1 | 105.9 | 103.4 | -25.4 | 82.0
18 | C=CCNCc1ccc(-c2ccc(C(C)O)cc2)o1 (stereo not given) | 103.4 | 113.9 | -20.5 | 103.8
19 | CC1CCCC(C)N1S(=O)(=O)c1ccccc1 (stereo not given) | 98.2 | 94.0 | -40.1 | 83.2
20 | Cc1cc(Nc2ccc(N3CCOCC3)cc2)n2ncnc2n1 | 109.8 | nt | 6.9 | nt
21 | CCCC(CCC)C(=O)Nc1nnc2n1CCS2 | 100.5 | 100.5 | nt | 87.0
22 | CCC(C)N1CCN(C2CCCCC2)CC1 (stereo not given) | 103.4 | 95.1 | -21.8 | 93.6
23 | Nc1cc(N)nc(SCc2cccnc2)n1 | 104.4 | 84.3 | -21.9 | 72.8
24 | COc1ccc(C2CC(=O)C3=C(C2)Nc2ccccc2NC3c2cc3c(cc2[N+](=O)[O-])OCO3)cc1OC (stereo not given) | 117.7 | nt | -27.9 | nt
25 | CCNc1nc(NCC)nc(SCCOC(=O)c2ccccc2)n1 | 95.9 | nt | -18.1 | nt
26 | CNC(=S)N/N=C/c1cc(C)ccc1C | nt | 102.6 | -11.8 | 83.3
27 | O=c1[nH]c2ccc(N=Cc3ccc(F)cc3)cc2[nH]1 | 94.1 | 103.2 | -13.3 | 93.1
28 | O=C(Nc1cccnc1N1CCOCC1)c1cccs1 | 90.2 | 83.6 | -15.1 | 87.5
29 | Fc1ccccc1Nc1c2c(nc3ncnn13)CCC2 | 107.9 | nt | -5.8 | nt
30 | CCc1ccc(Nc2nnc(-n3nc(C)cc3C)c3ccccc23)cc1 | 110.1 | 107.3 | 3.3 | 104.2
31 | O=C(c1ccc2c(=O)n3c(nc2c1)CCCCC3)N1CCCC1 | 107.3 | 115.8 | nt | 87.7
32 | CC(=O)N(C)c1ccc(N=Cc2ccc(C)o2)cc1 | 146.2 | 90.9 | -18.8 | 54.0
33 | Cc1ccc(S(=O)(=O)C2(C(=O)N3CCc4ccccc43)CC2)cc1 | nt | 126.0 | 1.0 | 86.9
34 | CC(=O)c1cccc(NC(=O)Cn2ccn3nc(-c4ccccc4)cc3c2=O)c1 | 101.6 | 78.3 | nt | 92.5
35 | CCOC(=O)C(C)Sc1nnc(Cc2cc(=O)[nH]c(=O)[nH]2)n1-c1cccc(OC)c1 (stereo not given) | 101.2 | 106.4 | 1.2 | 94.6
36 | Cc1ccc(-c2nc3c(c(SCC(=O)N4CCCCC4)n2)Cc2cc(C)ccc2O3)cc1 | 101.5 | 114.4 | -35.5 | 79.4
37 | COc1cc2ccccc2cc1C(=O)OCC(=O)Nc1ccccc1Cl | nt | 88.4 | 2.3 | 89.2
38 | CN(Cc1ccc(F)cc1)S(=O)(=O)c1nnc(NC(=O)c2ccccc2Br)s1 | 108.6 | 91.4 | nt | 23.0
39 | CCC(C)NC(=O)Cn1c(=O)c2cccn2c2ccc(F)cc21 (stereo not given) | 93.2 | 135.2 | -16.0 | 92.9
40 | COC(=O)c1sccc1NC(=O)c1ccc2nonc2c1 | 107.7 | 93.2 | -24.1 | 80.7
41 | COc1ccccc1NC(=O)c1oc2ccccc2c1NC(=O)CSCc1ccccc1 | 97.6 | 111.9 | nt | 73.8
42 | CCOC(=O)CNc1ccccc1C#N | 103.2 | nt | -10.5 | nt
43 | Cn1ncc2c(=O)n(CC(=O)NC34CC5CC(CC(C5)C3)C4)cnc21 | nt | 100.2 | -29.1 | 90.4
44 | O=C(Oc1ccccc1N1CCOCC1)c1ccco1 | 100.9 | 106.1 | -22.6 | 89.4
45 | CC(SC1CCCCC1)C(=O)Nc1ccc(S(N)(=O)=O)cc1 (stereo not given) | nt | 94.0 | 0.6 | 95.2
46 | Oc1ccc(C(=S)N2CCCCC2)cc1 | 104.6 | 100.7 | nt | 80.9
47 | CC1(C)NC(=O)N(Cc2ccccc2)C1=O | 103.4 | 75.6 | -25.4 | 68.1
48 | CC(=O)Nc1ccc(S(=O)(=O)N(C)S(=O)(=O)c2ccc(F)cc2)cc1 | nt | 90.0 | -14.3 | 82.5
49 | CCOC(=O)c1sc(=S)n(-c2ccc(F)cc2F)c1N | 99.2 | 74.7 | -9.3 | 74.8
50 | CCNC(=O)N1CCN(CCCC(c2ccc(F)cc2)c2ccc(F)cc2)CC1 | 103.0 | nt | -19.8 | nt

Other entries
no. | molecule | GIV Gai3 FP | Sa growth inh | HCMV UL50-53 inh | Sa growth inh second temp
51 | CCc1cc2c(=O)c(Oc3ccc(F)cc3)c(C)oc2cc1O | nt | 94.6 | -4.7 | 92.8
52 | Cc1cc(Oc2ccccc2)nc(SCc2ccccc2)n1 | 103.5 | 88.1 | nt | 83.6
53 | COc1ccc(Cl)cc1NC(=O)CN1CCCC(c2nnc(SC)n2C(C)C)C1 (stereo not given) | 98.7 | 112.8 | -3.0 | 87.7
54 | COc1ccc(-n2nc(C(=O)NCC(=O)Nc3ccccn3)c3ccccc3c2=O)cc1 | 98.5 | 96.9 | -16.7 | 92.3
55 | CCOC(=O)C1=C(C)N=c2s/c(=C\c3ccccc3Cl)c(=O)n2C1c1ccc(OC(C)=O)c(OC)c1 (stereo not given) | 97.0 | nt | -7.8 | nt
56 | CC1(C)C2=CC3(C)N(CC(=O)N2c2ccccc21)c1ccccc1C3(C)C (stereo not given) | 106.2 | 97.4 | 4.5 | 97.7
57 | Cc1nnc2c3c(-c4ccccc4)csc3ncn12 | 100.1 | 119.1&101.2 | -84.4&-20.4 | 83.6&81.8
58 | Cc1ccc(NC(=O)NC(Cc2ccccc2)Cc2ccc3c(c2)OCO3)cc1 (stereo not given) | 105.1 | nt | -3.3 | nt
59 | Cc1occc1-c1nnc(SC(C)C(=O)N2CCc3ccccc32)o1 (stereo not given) | 97.2 | nt | -25.5 | nt
60 | CC1CC(C)CN(C(=O)COC(=O)c2ccccc2NC(=O)c2ccco2)C1 (stereo not given) | nt | 97.5 | -9.6 | 93.1
61 | CC(=O)Nc1nc(C)c(Cc2ccccc2)c(=O)[nH]1 | nt | 105.8 | -8.6 | 86.1
62 | CCCCOc1ccc(C(=O)NCCc2c[nH]c3ccccc23)cc1 | 98.5 | nt | -11.5 | nt
63 | O=C(CCn1cnc2onc(-c3cccc(F)c3)c2c1=O)NCCCc1ccccc1 | 102.1 | nt | -10.1 | nt
64 | COc1ccccc1NC(=O)CSc1nc(-c2ccccc2)nc2cc(=O)[nH]n12 | 100.3 | nt | -31.2 | nt
65 | Cc1cc(C(=O)Nc2cccc(Cl)c2C)no1 | 105.1 | nt | 5.7 | nt
66 | COc1cccc(CC(=O)Nc2nnc(SCc3ccc(C#N)cc3)s2)c1 | nt | 106.9 | -25.1 | 95.8
67 | Cc1c(/C=C(/C#N)C(=O)Nc2ccc(Cl)cc2)c2ccccc2n1C | 95.7 | 99.8 | -9.7 | 103.4
68 | CC(C)C(CC(=O)O)c1ccco1 (stereo not given) | 102.1 | 119.0 | -8.7 | 79.8
69 | CNC(=O)CCCN1C(=O)c2cccnc2Sc2ccccc21 | 96.0 | 82.4 | nt | 89.1
70 | COc1ccc(C2Nc3ccccc3C(=O)N2c2ccc(C)cc2)cc1CN1CCOCC1 (stereo not given) | 100.5 | nt | -3.3 | nt
71 | O=C(CSc1ccc(S(=O)(=O)N2CCCC2)cn1)Nc1ccc2c(c1)OCCCO2 | nt | 122.6 | -4.4 | 86.9
72 | CN1CCN(c2nc(N(C)C)nc3c2cnn3C)CC1 | 101.8 | nt | -4.0 | nt
73 | COc1ccc(N2CCN(C(=O)C3CCN(S(=O)(=O)c4cn(C)cn4)CC3)CC2)cc1 | 93.7 | 114.1 | nt | 91.1
74 | CCCn1cnc2cc(NCc3ccc(OCC)cc3)ccc21 | 102.3 | 81.0 | -9.5 | 74.0
75 | CCNc1nc2nonc2nc1NCC | nt | 90.4 | -17.2 | 80.6
76 | O=C(Cn1nc(C(F)(F)F)c2c1CCC2)Nc1ccc(Cl)cc1 | 102.5 | 99.7 | -20.0 | 90.0
77 | Cc1cc(C)n(-c2nc(C)c(C(=O)N3CCN(CCO)CC3)s2)n1 | 99.9 | nt | 4.1 | nt
78 | O=C1CC(C(=O)Nc2ccc(C(=O)O)cc2)C(c2ccccc2)O1 (stereo not given) | 98.0 | 111.2 | nt | 86.0
79 | Cc1cccc(-c2noc(CCCC(=O)NCc3ccco3)n2)c1 | 93.8 | 109.5 | -10.6 | 86.3
80 | CCCCNC(=O)CC1CCN(C(=O)C2CCCCC2)CC1 | 101.1 | nt | -17.4 | nt
81 | C=Cc1ccc(Cn2c(C(=O)O)c(CNC3CCCCC3)c3ccc(OC)cc32)cc1 | 109.9 | 99.6 | nt | 100.4
82 | Cc1ccc(NC(=O)c2noc3c2CCCC3)cc1 | 98.1 | 111.2 | 2.5 | 95.7
83 | CCOc1ccc(NC(=O)c2cc(Cl)nc3ccccc23)cc1 | nt | 105.4 | 17.9 | 105.4
84 | COc1ccc(NC(=O)COC(=O)C2CCCCN2S(=O)(=O)c2cccc3nsnc23)cc1 (stereo not given) | nt | 124.7 | -66.7 | 100.4
85 | Cc1c2cnn(CC(=O)N3CCC(C)CC3)c(=O)c2c(C)n1Cc1ccccc1F | 102.5 | nt | -5.9 | nt
86 | Cc1c(C(=O)N2CCN(C)CC2)sc2ncnc(N3CCN(c4ccccn4)CC3)c12 | 101.1&98.4 | nt | 6.4&-13.8 | nt
87 | CCOC(=O)N1CCC(c2cc(=O)n3[nH]ccc3n2)CC1 | 111.7 | 75.5 | -9.2 | 82.4
88 | O=C(Nc1ccccc1)C(Cc1cccs1)c1nn[nH]n1 (stereo not given) | 98.4 | 94.8 | 3.2 | 105.0
89 | COc1ccc(N2CCN(c3nc(NCCc4ccc(OC)c(OC)c4)nc(OC)n3)CC2)cc1 | 110.0 | 106.0 | -0.5 | 98.6
90 | Brc1ccc(-c2ccc(CNCc3ccco3)o2)cc1 | 107.4 | nt | -29.8 | nt
91 | CC(=O)Nc1ccc2nc(NC(=O)c3ccc(-c4ccccc4)cc3)oc2c1 | nt | 106.0 | -9.1 | 85.0
92 | CCCCN(C(=O)Nc1ccc(OCC)cc1)C1CCN(C(C)=O)CC1 | 114.6 | 87.8 | nt | 101.7
93 | O=c1[nH]c(SC2CCCC2)nc2c1cnn2CCO | 100.3 | nt | 10.3 | nt
94 | CCOC(=O)c1ccc(NS(=O)(=O)c2cn(C)c(C)n2)cc1 | 100.3 | 102.8 | nt | 88.8

Quoted at random: 5 entries already listed.
no. | molecule | GIV Gai3 FP | Sa growth inh | HCMV UL50-53 inh | Sa growth inh second temp
6 | O=C(C1CCCCC1)N1CCCCCCC1 | 108.9 | 112.6 | -10.6 | 107.4
53 | COc1ccc(Cl)cc1NC(=O)CN1CCCC(c2nnc(SC)n2C(C)C)C1 (stereo not given) | 98.7 | 112.8 | -3.0 | 87.7
89 | COc1ccc(N2CCN(c3nc(NCCc4ccc(OC)c(OC)c4)nc(OC)n3)CC2)cc1 | 110.0 | 106.0 | -0.5 | 98.6
38 | CN(Cc1ccc(F)cc1)S(=O)(=O)c1nnc(NC(=O)c2ccccc2Br)s1 | 108.6 | 91.4 | nt | 23.0
82 | Cc1ccc(NC(=O)c2noc3c2CCCC3)cc1 | 98.1 | 111.2 | 2.5 | 95.7
